H5N1 CPE = antiviral screen in MDCK cells, H5N1 avian flu. actives 0.07% (n = 96,000). cytopathic effect, luminescence, 72 h; active compounds read high; no value below 0 was filed and about half of the inactive calls have no number; reference of the scale not given here. AID 740. inhibition, % at 50 µM; in the data active = inhibition above about 25%
The depositor's hits bear a star; i = inactive. An excerpt (hit frequency here may not be typical).

SMILES	H5N1 CPE
CCOc1ccc2[nH]c(O)c(NC(C)=O)c2c1	0.0
CCCCn1c(SCC(=O)Nc2cc(NC(=O)c3ccco3)ccc2C)nc2ccccc2c1=O	i
O=C(/C=C/c1ccccc1)Nc1ncn[nH]1	0.3
CCS(CC)=NS(=O)(=O)c1ccc(NC(C)=O)cc1	1.2
O=C(c1ccccc1)N1CCOC12CCN(c1ncc(C(F)(F)F)cc1Cl)CC2	i
CCCCNC(=O)c1ccc2c(c1)ncn2C1CCCCC1	0.1
Cc1ccc(-c2nnc(SCC(=O)N3CC(C)CC(C)C3)o2)cc1C (stereo not drawn)	i
CCOC(=O)c1cnc2c(N=Nc3cccc(Cl)c3)c(N)nn2c1N	i
COc1ccc(C(C)=O)cc1CN1C(=O)NC2(CCCCCC2)C1=O	0.7
O=[N+]([O-])c1ccc(/C=N/n2c(COc3ccccc3)n[nH]c2=S)cc1	i
Cc1cccc(N2C(=O)c3cccnc3C2=O)c1	i
Cc1nc(SCc2ccc([N+](=O)[O-])cc2)nc2ccccc12	0.1
N#Cc1cccc(-n2c(-c3ccccc3)nnc2-c2ccccc2)c1C#N	i
COc1ccc(C(=O)Cn2nnc(-c3ccccc3F)n2)cc1	1.8
c1ccc(Cn2c(NCc3ccco3)nc3ccccc32)cc1	i
Cc1ccc(C)c(OCCCN2CCCC2)c1	i
CC1Cc2nc(SCC(=O)N3CCCc4ccccc43)n(C)c(=O)c2S1 (stereo not drawn)	8.5
Cc1noc(NS(=O)(=O)c2ccc(N/C=C/C(=O)c3ccncc3)cc2)c1C	2.7
COc1cc(CC(=O)OCC(=O)Nc2ccc(S(=O)(=O)N3CCCC3)cc2)cc(OC)c1OC	i
Cc1ccc(Cn2c(CN(C)Cc3ccccc3)nc3c2c(=O)n(C)c(=O)n3C)cc1	1.6
CC1=NN(C(=O)c2ccccc2Br)C(O)(c2cccnc2)C1 (stereo not drawn)	i
O=C(Nc1ccc(N2CCOCC2)nc1)c1ccc(Cl)cc1	i
CCOC(=O)C1=NNC2C(=O)N(CC)C(=O)C12 (stereo not drawn)	i
O=C(c1cc2ccccc2o1)N1CCN(S(=O)(=O)c2cccs2)CC1	0.2
O=C(Cc1ccccc1)NCC(=O)OCC(=O)c1ccc(OC(=O)c2ccccc2)cc1	3.9
(cont.)
SMILES	H5N1 CPE
Oc1ccc(CN2CCN(Cc3ccccc3)CC2)c2cccnc12	0.2
CCc1[nH]nc2c1C(c1cccc(OC(=O)N3CCOCC3)c1)C(C#N)=C(N)O2 (stereo not drawn)	i
CCC(Sc1nc2cc3c(cc2c(=O)n1Cc1ccco1)OCO3)C(=O)NCCOC (stereo not drawn)	0.4
CCOC(=O)c1oc2ccc(S(=O)(=O)n3nc(-c4ccc(Cl)cc4)cc3N)cc2c1C	i
Cc1c(C(=O)NCCN2CCOCC2)oc2ccccc12	0.9
O=[N+]([O-])c1ccc(Sc2cccc3cccnc23)cc1	2.0
CCOc1ccc2[nH]c(=O)c(CN(CCc3ccccc3)C(=O)N3CCOCC3)cc2c1	0.4
CCc1ccc(NC(=O)CCN2C(=O)c3cccnc3C2=O)cc1	i
CC1CCN(CCNC(=O)CN(C)S(=O)(=O)c2cccc3nsnc23)CC1	1.3
O=S(=O)(NC1c2cccc3cccc(c23)C1N1CCNCC1)c1ccccc1 (stereo not drawn)	i
CCOC(=O)Oc1ccc2c(c1)C(C)=CC(C)(C)N2C(=O)OCC	0.3
COc1ccccc1NC(=O)CSc1nc2sc(C)c(C)c2c(=O)n1Cc1ccco1	0.1
COc1ccc(NC(=O)C2CC(=O)N(C)C(=Nc3ccc4c(c3)OCO4)S2)cc1 (stereo not drawn)	0.9
Cc1ccc(N(C(=O)c2ccc(Br)o2)C2C=CS(=O)(=O)C2)cc1 (stereo not drawn)	1.7
COc1ccccc1/C=N/n1c(N)c(C(=O)NC2CCCCC2)c2nc3ccccc3nc21	i
CCCOC(=S)Nc1ccccc1	0.1
Clc1ccc(N2CCN(c3cnc4ccccc4n3)CC2)cc1	i
CC(C)Oc1ccc(C(=O)Nc2ccc(NC(=O)c3ccco3)c(Cl)c2)cc1	i
O=C(Cn1nnc2c(cnn2-c2ccc(F)cc2)c1=O)c1ccccc1F	i
CCCn1c(SCC(=O)OCc2ccccc2)nc2c1c(=O)n(C)c(=O)n2C	0.3
CCOC(=O)/C=c1\sc2n(c1=O)CCN=2	i
CC(=O)Nc1ccc(NC(=O)CSC2=NCCS2)cc1	2.7
COc1cccc(C2C=C(c3ccc(OC)cc3OC)Nc3nnnn32)c1 (stereo not drawn)	0.1
COc1ccc(-c2nnc(NC(=O)C3CCCO3)s2)cc1 (stereo not drawn)	i
O=C1CCCC/C1=C\Nc1ccc(Cl)cn1	1.5
New compounds follow:
SMILES	H5N1 CPE
Cc1ccc(S(=O)(=O)/C=C2\NC(=O)CS2)cc1	i
Cc1ccc2cccnc2c1NC(=S)NC(=O)c1ccccc1	2.7
Cc1cccc2cc3c(N)c(C(=O)N4CCOCC4)sc3nc12	i
COc1ccccc1C(=O)Nc1ccc(S(=O)(=O)Nc2cc(C)nc(C)n2)cc1	i
CCN(CC)CCCN1C(=O)c2oc3ccccc3c(=O)c2C1c1cccc(OC)c1OC (stereo not drawn)	i
Cc1cccc(N(C(=O)c2ccc(Cl)cc2)C2CS(=O)(=O)CC2OC(=O)c2ccc(Cl)cc2)c1 (stereo not drawn)	1.0
Cc1ccc(SCc2nc3ccccc3n2CC(=O)Nc2ccccc2)cc1	i
COc1cc(OC)nc(NC(C)=O)n1	i
CC1=C(C)CC(C(=O)NNC(=O)c2ccccc2)C(C(=O)O)C1 (stereo not drawn)	i
CN1C=CC2=C(C#N)C(N)C(C#N)(C#N)C(c3ccccc3)C2C1 (stereo not drawn)	1.1
Cc1cccc(N2CCN(S(=O)(=O)c3ccc4c(c3)CCN4C(=O)CCC(=O)O)CC2C)c1 (stereo not drawn)	2.3
COc1ccccc1-n1c(C)cc(SC)c(C(C)=O)c1=S	0.7
O=C(NCCCc1ccccc1)C1CC(=O)N(c2ccc3c(c2)OCCO3)C1 (stereo not drawn)	i
CCC(C)NC(=O)CS(=O)Cc1nc(-c2cccc(C)c2)oc1C (stereo not drawn)	0.7
CCN(c1ccccc1)c1cc(C)nc2nc(C)nn12	0.0
CC1CCN(C(=O)c2ccc(N(C)S(C)(=O)=O)cc2)CC1	i
COc1ccc(S(=O)(=O)n2nc(OC(=O)c3ccco3)cc2N)cc1	i
CCOC(=O)CSc1nnc(-c2ccoc2C)n1-c1ccc(OCC)cc1	0.8
CCOC(=O)c1c(C)n(C)c2ccc(O)c(CN(C)C)c12	i
O=C(Nc1ccccn1)C1(c2ccccc2)CCCC1	1.4
COC(=O)/C(=C/Nc1cccc2ccccc12)[N+](=O)[O-]	i
CCOC12NC(=O)CC(=O)N1C(c1ccccc1)=CS2 (stereo not drawn)	0.3
COCc1n[nH]c(=S)n1-c1ccccc1	0.0
Cc1cc(C)c(NC(=S)N2CCC(N(C)CC3CCCO3)CC2)c(C)c1 (stereo not drawn)	i
O=C(Nc1cccc(C(F)(F)F)c1)c1cccnc1N1CCN(c2ccccc2)CC1	0.3
Next part:
SMILES	H5N1 CPE
Cc1ccccc1CN1C(=O)C2(OCCCO2)c2ccccc21	i
N#Cc1c(N)sc2c1CCCCCC2	i
C=C(C)COc1ccc(-c2nc(N)ncc2Oc2ccccc2OC)c(O)c1	0.1
O=C(NCC1CCCO1)C1CCN(S(=O)(=O)c2cccc3nonc23)CC1 (stereo not drawn)	1.1
Cc1ccc(CC2S/C(=C(/C#N)C(=O)NCc3ccco3)N(c3ccccc3)C2=O)cc1 (stereo not drawn)	0.5
Cc1ccc(NS(=O)(=O)c2ccccc2)c2c1CC(C)(C)O2	1.6
CN(C)CCCn1c(NC(=O)C2CCCCC2)nc2ccccc21	i
COc1ccc(C2=NOC(C(=O)Nc3ccc(C)cc3)C2)cc1OC (stereo not drawn)	8.2
Clc1ccc(OCc2nn3c(-c4ccco4)nnc3s2)cc1	i
Cc1ccc(S(=O)(=O)c2cc3c(=O)n4ccccc4nc3n(C)c2=N)cc1	1.0
COc1ccc(NC(=O)C(c2ccc(C)cc2)N(C)C(=O)c2cnccn2)cc1 (stereo not drawn)	0.8
COc1cccc(OC)c1OCCOCCn1cnc2ccccc2c1=O	0.4
CCOC(=O)c1c(C)[nH]sc1=S	1.4
CCCCn1nc2cc(C(=O)NCC3CC3)ccc2c1OCC	0.0
COc1ccc2nc(SCC(=O)Nc3ccccc3C)[nH]c2c1	1.1
COc1cc(C(=O)NC(=S)Nc2cccc(-c3cc4ccccc4oc3=O)c2)cc(OC)c1OC	i
CCNS(=O)(=O)c1ccc(NC(=O)c2ccccc2OCC)cc1	i
OCCCCNCc1ccc(OCc2ccccc2Cl)cc1	1.6
COc1ccc(CCNC(=O)C23CN(Cc4ccccc4)CC2C(c2ccc([N+](=O)[O-])cc2)=NO3)cc1 (stereo not drawn)	i
Cc1c(NS(=O)(=O)c2ccc(Br)s2)c(=O)n(-c2ccccc2)n1C	i
COC(=O)C(C#N)C(=C1C(=O)CC(C)(C)CC1=O)c1ccc(O)cc1 (stereo not drawn)	0.8
COc1ccc(C2CC(C(F)(F)F)n3nc(C(=O)O)c(Br)c3N2)cc1 (stereo not drawn)	i
O=C(CC(SCCO)c1ccc2c(c1)OCO2)c1cccs1 (stereo not drawn)	0.1
Cc1c(NC(=O)CN2C(=O)C3C4C=CC(C4)C3C2=O)c(=O)n(-c2ccccc2)n1C (stereo not drawn)	i
O=C1NC2(CCCCC2)Oc2ccccc21	0.4
Following part.
SMILES	H5N1 CPE
CCOCC(=O)Nc1sc2c(c1C(=O)OCC)CCCC2	0.1
CN(C1CCS(=O)(=O)C1)S(=O)(=O)c1cccc2nsnc12 (stereo not drawn)	i
Cc1ccc(-c2nc3ccccc3s2)cc1S(=O)(=O)N1CCCC1	2.4
Cc1cc(C)nc(SCC(=O)N2CCCCC2)n1	0.1
COc1ccc(C2c3c(ncn(CCN4CCOCC4)c3=N)Oc3ccc4ccccc4c32)cc1OC (stereo not drawn)	i
CCN1CCN(C(c2cccs2)C(C)NC(=O)c2ccco2)CC1 (stereo not drawn)	i
O=C(CNC(=O)c1ccco1)NCC(=O)OCc1cccc(C(=O)Oc2ccccc2)c1	0.1
CCS(=O)(=O)N1CCCC(C(=O)NCc2cccc(OC)c2)C1 (stereo not drawn)	0.3
Cc1ccc(CNc2oc(-c3ccco3)nc2C#N)cc1	0.5
CC1CCC(=C(C#N)c2nc(-c3cc4ccccc4oc3=O)cs2)CC1 (stereo not drawn)	i
O=C(N/N=C/c1ccc(Cl)cc1)c1cc2c(s1)-c1ccccc1CC2	i
COc1ccc(NC(=S)Nc2ccc3nc(C)c(C)nc3c2)cc1	i
CCOc1ccc2nc3c(cc2c1)CN(CCCO)C(=NCCOC)S3	i
Cc1nnc(SCC(=O)Nc2sc3c(c2C(N)=O)CCCC3)[nH]c1=O	0.2
CCCn1c(SCC(=O)c2ccc3c(c2)OCCO3)nnc1-c1ccco1	0.5
CCn1c(SCC(=O)N(C(C)C)C(C)C)nnc1-c1cc2ccccc2cc1O	1.5
O=C(CCN1C(=O)c2ccccc2C1=O)N1CCN(C(=O)c2ccccc2)CC1	0.1
COC(=O)c1ccc(Oc2nc(N3CCCCC3)nc(N3CCOCC3)n2)cc1	i
O=C(O)CN1CCNCC1	i
CCOC(=O)c1ccccc1NC(=O)c1cc2sccc2n1C	i
Cc1cccc(C(=O)NC2CCN(C(=O)N3CCOCC3)CC2)c1	0.8
O=C1C2CCCN2C(c2ccccc2F)N1c1ccc(F)cc1 (stereo not drawn)	i
COc1ccc(-n2c(=S)[nH]c3cc(C(=O)NCc4ccco4)ccc3c2=O)cc1OC	i
Cn1c(SCC(=O)c2cc3ccccc3o2)nnc1-c1ccccc1	i
COc1cccc(OCc2nc3ncc(Br)cc3[nH]2)c1	i

3 of the compounds above, with each value named.
COc1ccc(CCNC(=O)C23CN(Cc4ccccc4)CC2C(c2ccc([N+](=O)[O-])cc2)=NO3)cc1 (stereo not drawn)
  H5N1 CPE: i

Cc1c(NS(=O)(=O)c2ccc(Br)s2)c(=O)n(-c2ccccc2)n1C
  H5N1 CPE: i

COC(=O)C(C#N)C(=C1C(=O)CC(C)(C)CC1=O)c1ccc(O)cc1 (stereo not drawn)
  H5N1 CPE: 0.8

The results go on.
SMILES	H5N1 CPE
Cc1cnc(C(=O)OCC(=O)N(C(C)C)C(C)C)cn1	i
CC(C)Oc1ccc(N2CC(C(=O)Nc3ccccc3F)CC2=O)cc1 (stereo not drawn)	0.1
O=C(c1cccnc1)N1CCN(C(=O)c2cccs2)CC1	0.2
Cc1ccc(-c2nc(CS(=O)CC(=O)NCc3ccc(Cl)cc3)c(C)o2)cc1 (stereo not drawn)	0.8
O=S(=O)(c1ccc(Cl)cc1)c1snnc1-c1ccccc1	i
CSc1ncc(Cl)c(C(=O)C(C#N)c2nc3c(C)cc(C)cc3c(=O)[nH]2)n1 (stereo not drawn)	i

Molecules above that contain two or more sulfur atoms:
SMILES	H5N1 CPE
CCS(CC)=NS(=O)(=O)c1ccc(NC(C)=O)cc1	1.2
CC1Cc2nc(SCC(=O)N3CCCc4ccccc43)n(C)c(=O)c2S1 (stereo not drawn)	8.5
O=C(c1cc2ccccc2o1)N1CCN(S(=O)(=O)c2cccs2)CC1	0.2
CC1CCN(CCNC(=O)CN(C)S(=O)(=O)c2cccc3nsnc23)CC1	1.3
COc1ccccc1NC(=O)CSc1nc2sc(C)c(C)c2c(=O)n1Cc1ccco1	0.1
CC(=O)Nc1ccc(NC(=O)CSC2=NCCS2)cc1	2.7
Cc1ccc(S(=O)(=O)/C=C2\NC(=O)CS2)cc1	i
COc1ccccc1-n1c(C)cc(SC)c(C(C)=O)c1=S	0.7
CCOC(=O)c1c(C)[nH]sc1=S	1.4
Cc1c(NS(=O)(=O)c2ccc(Br)s2)c(=O)n(-c2ccccc2)n1C	i
O=C(CC(SCCO)c1ccc2c(c1)OCO2)c1cccs1 (stereo not drawn)	0.1
CN(C1CCS(=O)(=O)C1)S(=O)(=O)c1cccc2nsnc12 (stereo not drawn)	i
Cc1ccc(-c2nc3ccccc3s2)cc1S(=O)(=O)N1CCCC1	2.4
Cc1nnc(SCC(=O)Nc2sc3c(c2C(N)=O)CCCC3)[nH]c1=O	0.2
O=S(=O)(c1ccc(Cl)cc1)c1snnc1-c1ccccc1	i

Source: PubChem (SRMLSC)
